Source: PubChem (National Center for Advancing Translational Sciences (NCATS))
A488 fluor = compound autofluorescence in A488 spectral region; compound autofluorescence, A488 spectral region, dye equivalency; active compounds read high; max dye equivalency, M; 0.1% of 59,000 active; active = above 10 nM dye equivalent; inconclusive = 1 to 10 nM; inactive = 1 nM or less; about half of its hits are not listed in these tables;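 also: highest value over a series up to 38 µM; compound alone in buffer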
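Autofluorescence read at ex 480/em 540 nm after 15 min RT in 100 mM Tris pH 8.0; compound signal normalized to A488 standard series on each plate, reported as dye-equivalent concentration at each test concentration.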
TSHR ag = agonists of human thyroid stimulating hormone receptor. HEK293-CNG-TSHR cells (CNG channel as cAMP sensor), membrane potential dye, cAMP. 0.48% of 73,000 active. P16473. Potency, µM (series often up to 57.1 µM), for inactives: top-dose activation, most hits filed as activators; active = well fitted activation curve of enough size with the parental cells flat; inconclusive = any curve in the parental cells; inactive = parental cells flat and receptor cells flat or falling; also: potency is read from the fitted curve at half-maximal effect; % of control where 0% means no effect; weak receptor curves with flat parental cells got no call and are not listed
Target sequence (P16473 whole entry, looked up): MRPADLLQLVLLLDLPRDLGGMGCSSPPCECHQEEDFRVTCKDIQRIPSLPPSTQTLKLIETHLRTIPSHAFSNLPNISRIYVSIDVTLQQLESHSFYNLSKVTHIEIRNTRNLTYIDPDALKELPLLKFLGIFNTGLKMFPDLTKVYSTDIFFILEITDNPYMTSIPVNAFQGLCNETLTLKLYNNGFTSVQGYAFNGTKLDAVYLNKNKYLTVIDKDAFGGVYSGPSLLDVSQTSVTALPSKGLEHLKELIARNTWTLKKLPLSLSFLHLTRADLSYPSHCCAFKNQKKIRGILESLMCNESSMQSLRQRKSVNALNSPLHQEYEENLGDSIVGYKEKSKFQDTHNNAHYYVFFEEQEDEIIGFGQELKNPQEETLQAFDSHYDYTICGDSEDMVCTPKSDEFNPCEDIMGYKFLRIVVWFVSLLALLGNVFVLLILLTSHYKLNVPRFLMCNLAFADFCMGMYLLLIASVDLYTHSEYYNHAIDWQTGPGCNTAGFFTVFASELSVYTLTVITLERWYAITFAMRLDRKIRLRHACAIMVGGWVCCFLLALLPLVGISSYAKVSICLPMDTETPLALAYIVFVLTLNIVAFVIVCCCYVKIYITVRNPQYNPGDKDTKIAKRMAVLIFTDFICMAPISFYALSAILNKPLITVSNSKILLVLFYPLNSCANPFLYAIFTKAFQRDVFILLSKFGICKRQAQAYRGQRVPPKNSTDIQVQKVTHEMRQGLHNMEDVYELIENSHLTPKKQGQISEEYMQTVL
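cAMP rise detected as CNG-channel membrane depolarization by fluorescent dye (emission 590 nm), 30 min after compound, following 60 min dye loading containing 100 uM RO 20-1724 at room temperature. Cells: TSHR/CNG HEK 293, with parental CNG HEK 293 as control.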
Resorufin fluor = compounds fluorescent in resorufin spectral region; Compound fluorescence, resorufin region 547/598 nm, buffer; active compounds read high; max dye-equivalent concentration, M; AID 588; 0.04% of 59,000 active; active = above 10 nM dye equivalent; inconclusive = 1 to 10 nM; inactive = 1 nM or less; a few of its hits are not listed in these tables; also: highest value over a series up to 38 µM
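Dye-equivalent concentration values derive from comparing each well's 547/598 nm fluorescence against resorufin standards included on every plate. Incubation was 15 min at room temperature in 100 mM Tris, pH 8.0.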
A647 fluor = A647 region autofluorescence; max dye-equivalent concentration, M; 59,000 tested, under 10 active; Compound fluorescence, A647 channel (570/671 nm), Tris buffer; active means above 1 µM dye equivalent; inconclusive means 0.1 to 1 µM; inactive means 0.1 µM or less;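 also: values scaled relative to a standard on each plate; highest value over a series up to 38 µM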
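Fluorescence read (570 nm ex, 671 nm em) after 15 min RT incubation of compounds in 100 mM Tris buffer, pH 8.0; values expressed as dye-equivalent concentration against a six-point A647 standard series on each plate.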
AID923 = qHTS Assay for Allosteric/Competitive Inhibitors of Caspase-1: Spectroscopic Profiling in AFC Spectral Region; AID 923, 2007; compound fluorescence, AFC spectral region (405/520 nm); almost no hit is shown here; 1.1% of 75,000 active; Potency, µM (highest dose often 57.5 µM), inactives show top-dose fluorescence increase, most hits filed as activators; active = well fitted activation curve with a large enough effect; inconclusive = small, poorly fitted or top-dose-only effect;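 also: potency is read from the fitted curve at half-maximal effect; 0% is about no effect; scaled to a free AFC standard on each plate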
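Baseline compound fluorescence (AFC region, 405 nm ex/520 nm em) taken from the intercept of kinetic reads with 50 nM caspase-1 and 5 uM Ac-WEHD-AFC; normalized to an on-plate AFC standard curve; compounds titrated up to 57 uM.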
Starred values were filed as active, the others as inactive; i = inactive; ? = inconclusive; · = no result given; [ ] = dose if it differs, or a comment. Some of the compounds tested, so the mix of outcomes need not match the whole.

SMILES	A488 fluor	TSHR ag	Resorufin fluor	A647 fluor	AID923
COc1cc(S(=O)(=O)N2CCOCC2)c(OC)c(S(=O)(=O)N2CCOCC2)c1	i	3.6%	i	2.5e-09	1.2%
O=C(c1cccs1)N1CCCc2ccccc21	i	·	i	1e-09	5.8%
O=c1c2ccccc2nc(SCc2cn3ccsc3n2)n1-c1ccc(F)cc1	i	?	i	1e-09	0.2%
CCOc1ccc(NC(=O)CCN2CCN(S(=O)(=O)c3cc(Cl)ccc3OC)CC2)cc1	i	-4.1%	i	1e-09	-0.7%
Cn1c(/N=C/c2ccc3c(c2)OCO3)nc2ccccc21	·	5.8%	·	·	0.9%
CCCC1CC(c2csc(N)n2)CCO1 (configuration not stated)	i	0.2%	i	9e-09	0.0%
Cc1cc(C)c(C#N)c(SCC(=O)Nc2ccc(S(=O)(=O)Nc3onc(C)c3C)cc2)n1	·	7.9%	·	·	-0.7%
CC1CN(c2oc(Cc3cccc4ccccc34)nc2C#N)CC(C)O1 (configuration not stated)	i	?	i	1e-09	-0.4%
O=C(c1cccs1)N1CCC(c2nc(-c3ccc(S(=O)(=O)N4CCOCC4)cc3)no2)CC1	i	10.9%	i	1e-09	-1.9%
O=C(NCc1ccc2c(c1)OCO2)c1ccc(CS(=O)(=O)c2cccc(C(F)(F)F)c2)o1	i	?	i	1.82e-08	-0.6%
CC(C)(CSc1nncn1N)NS(=O)(=O)c1ccc(Cl)cc1	i	-11.5%	i	7.2e-09	0.7%
O=C(c1cc(-c2ccc(O)cc2)on1)N1CCc2ccccc2C1	·	?	·	·	2.8%
Cc1nnc(SCC(=O)NCc2cccs2)n1-c1ccccc1	i	2.8%	i	3.9e-09	1.8%
COc1ccc(N2CCN(CC(=O)Nc3cc(C)on3)CC2)cc1	i	-16.0%	i	4.2e-09	-1.5%
Cc1cc(NC(c2cccnc2)c2c(C)[nH]c3ccccc23)no1 (configuration not stated)	i	-8.6%	i	1e-09	-0.3%
CCOC(=O)C1=C(C)NC2=C(C(=O)CCC2)C1c1ccsc1 (configuration not stated)	i	16.4%	i	2.7e-08	8.5%
CCc1cccc(C)c1NC(=O)c1ccoc1C	·	3.1%	·	·	0.4%
CCOC(=O)C(C)Sc1nnc(CNC(=O)c2ccc(OC)cc2)n1C1CCCCC1 (configuration not stated)	i	27.1%	i	1e-09	0.4%
O=C(CSC1=NCCS1)Nc1ccnc2ccccc12	i	·	i	6e-08	4.8%
O=C(NCCn1ccc2ccccc21)c1ccc(S(=O)(=O)N2CCCCC2)cc1	·	7.8%	·	·	-2.7%
COc1ccc(CSC2=C(C#N)C(=O)NC3(CCCCC3)S2)cc1	i	6.9%[11.4 µM]	i	1e-09	-1.5%[11.5 µM]
Cc1nc2nc(C)c(CCC(=O)N3CCOCC3)c(C)n2n1	i	15.1%	i	3e-09	-0.2%
CCc1cccc(C)c1NC(=O)CSc1nc2ccccc2n1CC(=O)N(C)C	i	3.8%	i	1.88e-08	0.1%
Clc1cc(Cl)c(Cl)c(Cl)c1Cl	·	3.7%	·	·	-1.1%
Cc1ccc(S(=O)(=O)c2nc(-c3ccc(F)cc3)oc2SCC(=O)NCC2CCCO2)cc1 (configuration not stated)	i	1.4%[11.4 µM]	i	1.53e-08	-0.2%
CC1(C)NC(=O)N(CCCOc2ccc(Br)cc2Cl)C1=O	i	5.5%	i	4.5e-09	-2.6%
CCCCC(=O)Nc1nc2ccc3nc(C)sc3c2s1	·	36.6%	·	·	-1.0%
O=C(NCCC1=CCCCC1)C1CCN(S(=O)(=O)c2cccc3nonc23)CC1	i	-4.3%	i	1e-09	1.7%
O=C(NCc1ccc(N2CCCC2=O)cc1)Nc1cccc(Cl)c1	i	·	i	3.3e-09	-0.4%
CS(=O)(=O)N(CCc1ccccc1)CC(=O)N1CCCCC1	i	2.5%	i	2e-09	0.6%

Full records as entered above:
Cc1cc(NC(c2cccnc2)c2c(C)[nH]c3ccccc23)no1 (configuration not stated) in the list: A488 fluor: i; TSHR ag: -8.6%; Resorufin fluor: i; A647 fluor: 1e-09; AID923: -0.3%
O=C(c1cc(-c2ccc(O)cc2)on1)N1CCc2ccccc2C1 in the list: A488 fluor: ·; TSHR ag: ?; Resorufin fluor: ·; A647 fluor: ·; AID923: 2.8%

Next part
Value order: A488 fluor, TSHR ag, Resorufin fluor, A647 fluor, AID923
> O=C(O)CCCC(=O)N1CC(=O)Nc2ccccc21
→ i, 0.1%, i, 2.44e-08, 1.9%
> O=C(N1CCOCC1)N1CCCN(C(=O)N2CCOCC2)CC1
→ i, -2.5%, i, 6.2e-09, 2.3%
> CCS(=O)(=O)N1CCN(c2ccccc2F)CC1
→ i, -0.7%, i, 3.39e-08, 0.6%
> CC(=O)c1cccc(NC(=O)c2c(F)c(F)c(F)c(F)c2F)c1
→ ·, 1.1%[11.4 µM], ·, ·, -1.6%
> CCC(c1nnc(SCC(=O)Nc2nnc(-c3ccccc3)o2)n1Cc1ccccc1)N(C)C (configuration not stated)
→ i, ?, i, 1e-09, -2.7%
> CC1=C(C(=O)OCc2ccc3c(c2)OCO3)C(c2ccc(F)cc2)NC(=O)N1 (configuration not stated)
→ i, ?, i, 4e-09, 2.1%
> Cc1cc(Oc2ccc(Cl)cc2)nc(-c2ccccc2O)n1
→ i, ?, i, 1e-09, 0.8%
> Cc1ccc(S(=O)(=O)N[C@H]2COC(=O)[C@H](C)COC(=O)C/C=C\[C@H]2C)cc1
→ ·, -4.7%[11.4 µM], ·, ·, -0.2%[11.5 µM]
> CC1Cc2cc(/C(O)=C3/C(=O)C(=O)N(CCN4CCOCC4)C3c3cccc(Cl)c3)ccc2O1 (configuration not stated)
→ i, -1.1%, i, 4.38e-08, 0.0%
> O=C1CN(c2ccc(Br)cc2)C(=O)N1CC(=O)N1CCCc2ccccc21
→ i, 9.5%, i, 6.7e-09, -4.0%
> O=C(CN(CC1CCCO1)S(=O)(=O)c1ccc(S(=O)(=O)NC2CC2)cc1)Nc1ccccc1 (configuration not stated)
→ i, -6.7%, i, 1e-09, 1.1%
> CCCc1nnc(NC(=O)CN2C(=O)C3C4C=CC(C4)C3C2=O)s1 (configuration not stated)
→ i, -1.4%, i, 1.37e-08, 0.8%
> CCOC(=O)c1ccc(NC(=O)CCc2c(C)nc3ncnn3c2C)cc1
→ i, ·, i, 2.49e-08, -1.1%
> CNC(=O)c1cc2c(s1)CCCCCC2
→ i, -6.1%, i, 1e-09, -4.2%
> O=C(O)c1c(-c2nccc3ccccc23)[nH]c(-c2ccccc2)c1S(=O)(=O)O
→ i, 3.1%[11.4 µM], i, 4.84e-08, 3.7%[11.5 µM]
> CCOC(=O)c1cnn(-c2ncnc3sc4c(c23)CCC4)c1N
→ i, ·, i, 1.54e-08, -0.6%
> Cc1noc(C)c1C(=O)N1CCC2(CCN(Cc3ccncc3)CC2)CC1
→ i, 3.4%, i, 1e-09, 0.0%
> CCC(=O)Nc1c2c(nn1-c1cccc(Cl)c1)CSC2
→ ·, 10.5%, ·, ·, 0.0%
> CCCC1Cc2nc(N3CCCCC3)c(C#N)cc2CO1 (configuration not stated)
→ i, ·, i, 2.46e-08, 2.1%
> COc1ccccc1-c1nnc(SCC(=O)Nc2ccccc2)o1
→ i, 8.5%, i, 3.71e-08, -2.3%
> O=C(NC1CCCC1)c1csc2c1CCCC2
→ i, -0.8%[11.4 µM], i, 1.86e-08, 0.0%
> O=C(NCC(c1cccnc1)N1CCN(c2ccc(F)cc2)CC1)OCc1ccccc1 (configuration not stated)
→ i, 14.7%, i, 3.5e-09, 0.0%
> CCN(CC)CCn1c(O)c(N=O)c2ccccc21
→ i, ·, i, 1.06e-08, ·
> CCN(CC)CCOc1ccc(/C(=C(\Cl)c2ccccc2)c2ccccc2)cc1
→ i, -11.2%[25.6 µM], i, 2.84e-08, -0.9%
> COc1ccc(N2CCN(C3CC(=O)N(c4ccc5c(c4)OCCO5)C3=O)CC2)cc1 (configuration not stated)
→ i, -4.1%, i, 6.3e-09, -0.1%
> CCCCCNC(=O)c1ccc2c(=O)n(CC3CCCO3)c(=O)[nH]c2c1 (configuration not stated)
→ i, -5.4%, i, 1e-09, 0.5%
> O=C(COC(=O)CSCC(=O)N1CCCCC1)NCc1ccc(F)cc1
→ i, -0.4%, i, 1.14e-08, -0.9%
> Cc1ccc(-c2nn(CC(C)(C)C)c3ncnc(N)c23)cc1
→ ·, 1.2%, ·, ·, -2.8%
> Cc1ccc(CN(Cc2cc3cccc(C)c3[nH]c2=O)C(=O)N(C)C)cc1
→ i, 19.1%, i, 1e-09, -0.9%
> Cc1noc(NS(=O)(=O)c2ccc(NC(=O)CSc3nc4ccccc4[nH]3)cc2)c1C
→ i, 9.3%, i, 4.6e-09, -1.1%
> Cc1noc(C)c1S(=O)(=O)N1CCN(C(c2ccccc2)c2ccc(Cl)cc2)CC1 (configuration not stated)
→ ·, 8.3%, ·, ·, 1.6%
> COC(=O)c1ccc(Oc2ccc3nnc(C)n3n2)cc1
→ ·, -1.8%, ·, ·, -0.9%
> CCn1cnc2cc(NCc3cccc(OC)c3O)ccc21
→ i, 3.6%, i, 1e-09, -0.7%
> O=C(CC(C(=O)O)C1CCCO1)Nc1cccc(C(F)(F)F)c1 (configuration not stated)
→ i, 0.1%, i, 1e-09, 1.1%
> COCCOC(=O)c1c(NC(=O)CN2CCOCC2)sc(C(N)=O)c1C
→ i, ·, i, 2.47e-08, -0.8%
> COc1ccc(S(=O)(=O)NC2CCCCC2)cc1C
→ i, -12.5%, i, 2.16e-08, -2.1%
> Cc1ccc(C(=O)NCc2ccc3c(c2)OCO3)cc1S(=O)(=O)N1CCCCC1
→ i, 27.7%, i, 7.7e-09, -1.5%
> Fc1ccc(CSc2nnc(-c3cnccn3)n2Cc2ccco2)cc1
→ i, 12.9%, i, 1e-09, 1.3%
> O=C(Nc1ccc(N2CCN(C(=O)c3ccccc3)CC2)cc1)c1ccc(Br)o1
→ i, -15.1%, i, 1e-09, -1.3%
> NC(=O)C1(N2CCCCC2)CCN(C(=O)c2ccccc2)CC1
→ ·, -4.3%[11.4 µM], ·, ·, 0.6%
> CC(=O)c1cccc(NC(=O)Nc2ccc(C(=O)N3CCOCC3)cc2)c1
→ i, -8.8%, i, 1e-09, -1.1%
> COc1ccccc1CNc1nc2ccccc2n1CCN1CCCCC1
→ i, 13.3%, i, 1e-09, 0.7%
> CCCNS(=O)(=O)c1ccc(C(=O)NCC2CCCO2)cc1 (configuration not stated)
→ i, -2.7%, i, 1.53e-08, -1.4%
> Cc1cc(O)c(C2(C(F)(F)F)NCCNC2=O)cc1C (configuration not stated)
→ i, 0.1%, i, 1.82e-08, -0.7%
> COc1cccc(Cn2cccc(NC(=O)NC3CCCCC3)c2=O)c1
→ i, -3.5%, i, 1.62e-08, 7.5%
> COc1ccc(CCNC(=O)CN(c2ccccc2OC)S(C)(=O)=O)cc1
→ i, 13.2%, i, 2.7e-09, 4.8%
